High-throughput results deposited in PubChem by Broad Institute.
AF4-AF9 inh: inhibitors of human MLL-AF4/AF9 interaction. AlphaScreen, biotin-AF4 peptide binding to FLAG-AF9. inhibition, % at 10 µM. 350,000 compounds, 0.47% hits. AID 651704;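 active = every replicate reaching a set inhibition limit, whatever the replicate mean, cut at about 25% in these data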;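 also: 0% = plate neutral control median and 100% = total signal loss; the record names both 10 and 1 µM as test concentration; the first replicate is given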
Target sequence (P42568 whole entry, looked up): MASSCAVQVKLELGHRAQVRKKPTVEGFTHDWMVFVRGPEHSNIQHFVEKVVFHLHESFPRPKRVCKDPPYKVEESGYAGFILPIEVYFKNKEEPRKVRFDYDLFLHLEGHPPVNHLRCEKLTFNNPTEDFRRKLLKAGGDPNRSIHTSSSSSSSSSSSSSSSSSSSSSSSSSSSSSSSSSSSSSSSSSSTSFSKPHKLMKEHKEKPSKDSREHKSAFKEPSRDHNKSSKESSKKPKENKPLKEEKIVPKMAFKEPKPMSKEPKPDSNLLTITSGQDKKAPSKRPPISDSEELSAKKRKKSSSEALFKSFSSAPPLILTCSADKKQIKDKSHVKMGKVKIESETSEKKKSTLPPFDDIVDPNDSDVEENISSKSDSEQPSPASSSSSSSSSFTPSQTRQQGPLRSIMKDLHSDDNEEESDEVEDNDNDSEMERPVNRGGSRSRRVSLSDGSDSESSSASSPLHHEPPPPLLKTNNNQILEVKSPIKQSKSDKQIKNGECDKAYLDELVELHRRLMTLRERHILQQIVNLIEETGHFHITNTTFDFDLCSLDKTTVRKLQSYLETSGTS
Active calls of the source: *; & = joins results of further samples.

SMILES | AF4-AF9 inh
C[C@@H]1CN([C@H](C)CO)C(=O)c2cc(/C=C/c3ccccc3)cnc2O[C@H]1CN(C)C(=O)CN(C)C | 5.8
CCC(=O)N(C)C[C@H]1Oc2ncc(C#C[C@@H](C)O)cc2C(=O)N([C@H](C)CO)C[C@H]1C | -3.7
CO[C@H]1CN(C)C(=O)c2ccc(NC(=O)C3CC3)cc2OC[C@H](C)N(CC2CCCC2)C[C@H]1C | -0.6
COc1ccc(NC(=O)N(C)C[C@H]2Oc3cc(-c4ccncc4)ccc3S(=O)(=O)N([C@H](C)CO)C[C@H]2C)cc1 | -1.8
C[C@H]1CN([C@@H](C)CO)C(=O)c2cc(NC(=O)C3CCCCC3)ccc2O[C@H]1CN(C)C | -2.4
C[C@@H]1CN([C@H](C)CO)C(=O)c2cccc(NS(=O)(=O)c3cn(C)cn3)c2O[C@@H]1CN(C)Cc1ccc(C(=O)O)cc1 | -2.0
CC1(C(=O)Nc2ccccc2Br)CCN1C(=O)CC1CC1 (stereo not given) | 1.8
C[C@@H]1CN([C@H](C)CO)C(=O)c2cc(C#CCN(C)C)cnc2O[C@H]1CN(C)S(=O)(=O)c1ccccc1 | -0.6
C[C@H]1CN([C@@H](C)CO)C(=O)c2cccc(NC(=O)c3ccncc3)c2O[C@H]1CN(C)S(=O)(=O)c1cn(C)cn1 | -2.9
CCCNC(=O)N1CC2(CCN(C)CC2)c2c([nH]c3cc(OC)ccc23)[C@@H]1CO | 0.5
CSc1ccc(Cn2c(C)c(C(=O)NCc3ccc(Cl)c(Cl)c3)sc2=O)cc1 | 3.6
CC1(C(=O)NCc2cccc(C(F)(F)F)c2)CCN1CCc1ccccc1 (stereo not given) | -2.5
Cc1cc(C)c(C#N)c(OCC2CCCO2)n1 (stereo not given) | -3.8
CCNC(=O)C1(C)CCCN1Cc1cccc(C(F)(F)F)c1 (stereo not given) | 1.5
C[C@H]1CN([C@@H](C)CO)C(=O)c2cc(NC(=O)CCC(F)(F)F)ccc2O[C@H]1CN(C)Cc1ccc(C(=O)O)cc1 | -4.0

Arranged by value in AF4-AF9 inh (low to high): 3 of the compounds above.
SMILES | AF4-AF9 inh
Cc1cc(C)c(C#N)c(OCC2CCCO2)n1 (stereo not given) | -3.8
C[C@H]1CN([C@@H](C)CO)C(=O)c2cccc(NC(=O)c3ccncc3)c2O[C@H]1CN(C)S(=O)(=O)c1cn(C)cn1 | -2.9
CSc1ccc(Cn2c(C)c(C(=O)NCc3ccc(Cl)c(Cl)c3)sc2=O)cc1 | 3.6

(continued)
SMILES | AF4-AF9 inh
CC(C)(C)n1nnnc1C(c1ccccc1)N1CCN(c2ncccc2C(F)(F)F)CC1 (stereo not given) | 2.8&-1.8
CCNC(=S)NCC | -0.3
CCN(CC)C(=O)c1cccc(-c2csc(C(O)c3ccco3)n2)c1 (stereo not given) | -3.5
COc1cc(-c2cnc3c(NC(C)=O)cc(-c4cccc(C(=O)NCCO)c4)cn23)cc(OC)c1OC | -1.2
C[C@@H]1CN([C@H](C)CO)C(=O)Cc2cc(NC(=O)CCN3CCOCC3)ccc2O[C@@H]1CN(C)S(=O)(=O)c1ccc(F)cc1 | 2.2
CN(C)c1ccc(-c2csc(C(O)c3cccc(Cl)c3)n2)cc1 (stereo not given) | 6.3
O=C(C[C@H]1C=C[C@H](NS(=O)(=O)c2ccccc2)[C@H](CO)O1)NCc1ccc(Cl)c(Cl)c1 | -2.0
CCCCCCCCN1C(=O)[C@H](CC(=O)NCc2ccccc2)C[C@@]2(C(=O)OCC)CCC=C12 | -1.9
COc1ccc(NC(=O)N[C@@H]2CC[C@@H](CCn3cc(-c4ccccn4)nn3)O[C@@H]2CO)cc1 | -0.1
CC(=O)n1cc([C@@H]2C=C(C(=O)N3CCCCCCC3)O[C@H](OCc3ccc(CO)cc3)C2)c2ccccc21 | -0.2
COc1ccc(-c2ccc3n(c2=O)C[C@H]2[C@H](CO)[C@@H](C(=O)NCC4CC4)N(C(=O)NC(C)C)[C@@H]32)cc1 | -13.1
CC(=O)Nc1cccc(C(=O)NNC(=O)c2ccc(NS(=O)(=O)c3cccs3)cc2)c1 | -5.4
O=S(=O)(c1ccccc1F)N1CCCCN2[C@H](C1)[C@@H](c1ccc(-c3ccccc3)cc1)[C@@H]2CO | -8.2
COc1ccc(CN(C)C[C@H]2Oc3ccc(NC(=O)Cc4ccccc4)cc3C(=O)N([C@H](C)CO)C[C@H]2C)cc1 | 0.4
COc1ccc(NC(=O)N2CC[C@@H]3[C@H]2c2cc(C4=CCCCC4)ccc2N(C)[C@H]3CO)cc1 | 1.0

In the list so far, these have a COOH group.
SMILES | AF4-AF9 inh
C[C@@H]1CN([C@H](C)CO)C(=O)c2cccc(NS(=O)(=O)c3cn(C)cn3)c2O[C@@H]1CN(C)Cc1ccc(C(=O)O)cc1 | -2.0
C[C@H]1CN([C@@H](C)CO)C(=O)c2cc(NC(=O)CCC(F)(F)F)ccc2O[C@H]1CN(C)Cc1ccc(C(=O)O)cc1 | -4.0

Structures above that contain a Cl atom:
SMILES | AF4-AF9 inh
CSc1ccc(Cn2c(C)c(C(=O)NCc3ccc(Cl)c(Cl)c3)sc2=O)cc1 | 3.6
CN(C)c1ccc(-c2csc(C(O)c3cccc(Cl)c3)n2)cc1 (stereo not given) | 6.3
O=C(C[C@H]1C=C[C@H](NS(=O)(=O)c2ccccc2)[C@H](CO)O1)NCc1ccc(Cl)c(Cl)c1 | -2.0

Next section
SMILES | AF4-AF9 inh
C[C@@H]1CN([C@@H](C)CO)C(=O)Cc2cc(NC(=O)C3CC3)ccc2O[C@H]1CN(C)C(=O)Nc1ccccc1 | -1.2
C[C@@H]1CN([C@@H](C)CO)C(=O)c2cc(NC(=O)Nc3ccccc3)ccc2O[C@@H]1CN(C)C(=O)Nc1ccc(C(F)(F)F)cc1 | 1.1
O=C(C[C@H]1CC[C@@H](NC(=O)Cc2cccnc2)[C@@H](CO)O1)Nc1ccccc1 | -2.2
N#C[C@@H]1[C@@H](c2ccccc2)[C@@H](CO)N1C(=O)Cc1ccccc1 | 3.1
C[C@@H]1CCCCO[C@@H](CN(C)Cc2ccccc2)[C@@H](C)CN([C@H](C)CO)C(=O)c2cc(NC(=O)Nc3ccc4c(c3)OCO4)ccc2O1 | -6.0
O=C1c2cccc3cccc(c23)C(=O)N1Cc1ccccn1 | 2.8
CC=Cc1ccc2n(c1=O)C[C@@H]1[C@@H](CO)[C@H](C(=O)NC3CCCCC3)N(CCC)[C@H]21 (mixture of isomers) | 2.6
CN1C(=O)c2cc(NC(=O)C3CCCC3)ccc2OC[C@@H]2O[C@@H](CC(=O)NCC(F)(F)F)CC[C@@H]21 | -1.6
COc1ccc(S(=O)(=O)N(C)C[C@H]2OCCCC[C@H](C)Oc3ccc(NS(C)(=O)=O)cc3C(=O)N([C@@H](C)CO)C[C@@H]2C)cc1 | 2.7
COCCCN1C(=O)C(CC(=O)NCC2CCCCC2)CC(C(=O)N(C(C)C)C(C)C)=C1C (stereo not given) | 2.9
COc1ccc(C#Cc2cnc3c(c2)C(=O)N([C@H](C)CO)C[C@@H](C)[C@H](CN(C)C)O3)cc1 | 8.6
CC1(C(=O)NS(=O)(=O)c2ccccc2C(F)(F)F)CCN1C(=O)CCc1cccs1 (stereo not given) | -5.7
CC(=O)N(C)C[C@H]1Oc2ncc(C#Cc3ccncc3)cc2C(=O)N([C@H](C)CO)C[C@H]1C | -17.1
C[C@@H](NC(=O)C[C@@H]1C[C@H]2c3cc(NC(=O)Nc4ccccc4F)ccc3O[C@H]2[C@H](CO)O1)c1ccccc1 | -0.3
CC(C)(C)NC(=O)NC(=O)COC(=O)C1CCN(S(=O)(=O)c2cccs2)CC1 | 1.3
C/C=C/c1ccc2c(c1)O[C@H](CN(C)C(=O)NC1CCCC1)[C@@H](C)CN([C@@H](C)CO)S2(=O)=O | -1.5
CO[C@H]1CN(C)C(=O)c2ccc(NC(=O)c3cnccn3)cc2OC[C@H](C)NC[C@H]1C | -1.8
Cc1noc(C)c1S(=O)(=O)N(C)C[C@H]1Oc2ccc(NC(=O)Nc3ccc(F)cc3)cc2CC(=O)N([C@H](C)CO)C[C@H]1C | -4.7
COc1ccc(S(=O)(=O)Nc2cccc3c2O[C@H](CN(C)CC2CC2)[C@@H](C)CN([C@@H](C)CO)C3=O)cc1 | -8.3
Cc1cccc(S(=O)(=O)N2CC[C@@H]3[C@H]2c2cc(C#Cc4cccc(F)c4)ccc2N[C@@H]3CO)c1 | -2.6
O=C(NC1CCCC1)N1CC2(C1)[C@@H](c1ccccc1)[C@@H](CO)N2CC1CCCC1 | 1.7
Cc1ccc(COC[C@H](CC(C)C)N2CCN(C(=O)c3cccc(C(F)(F)F)c3)CCC2=O)cc1 | -1.1
C[C@@H]1CN([C@H](C)CO)C(=O)c2cccc(NC(=O)c3cnccn3)c2O[C@H]1CN(C)S(=O)(=O)c1cccs1 | -1.3
CCCCCCCCN1C(=O)[C@@H](CC(=O)N2CCSCC2)C[C@@]2(C(=O)OC)C1=C[C@H](C(C)(C)C)O[C@@H]2C | 1.1
COc1ccc(S(=O)(=O)Nc2cccc3c2O[C@@H](CN(C)S(=O)(=O)c2ccc(F)cc2)[C@@H](C)CN([C@H](C)CO)C3=O)cc1 | -12.5
COCC(=O)N(C)C[C@H]1Oc2ncc(C#Cc3cccnc3)cc2C(=O)N([C@H](C)CO)C[C@@H]1C | -20.3
CO[C@@H]1CN(C)C(=O)c2ccc(NC(=O)Nc3ccccc3)cc2OC[C@H](C)NC[C@@H]1C | 2.8
COc1ccccc1NC(=O)N(C)C[C@H]1Oc2ncc(C#CCN(C)C)cc2C(=O)N([C@@H](C)CO)C[C@H]1C | -12.8
CCCN(C)C[C@@H]1Oc2cc(C#CCC3CCCC3)ccc2S(=O)(=O)N([C@H](C)CO)C[C@@H]1C | 1.5
CN(CCNC(=O)c1c[nH]c2c1ccc1ccccc12)CCNC(=O)c1c[nH]c2c1ccc1ccccc12 | 11.9

By substructure: the compounds so far containing a cyano group
SMILES | AF4-AF9 inh
Cc1cc(C)c(C#N)c(OCC2CCCO2)n1 (stereo not given) | -3.8
N#C[C@@H]1[C@@H](c2ccccc2)[C@@H](CO)N1C(=O)Cc1ccccc1 | 3.1

Next entries:
SMILES | AF4-AF9 inh
O=C(C[C@@H]1C=C[C@H](NC(=O)c2cccc(F)c2)[C@@H](CO)O1)NCc1ccccc1 | 0.1
O=C(Nc1cccc(Cl)c1)N[C@H]1CC[C@@H](CCNC(=O)C2CCOCC2)O[C@H]1CO | -0.2
CCC(=O)N1CC(=O)N2[C@@H](CO)[C@H](c3ccc(-c4ccccc4F)cc3)[C@@H]2C1 | -1.1
COc1ccc(S(=O)(=O)Nc2cccc3c2O[C@@H](CN(C)Cc2ccc(C(F)(F)F)cc2)[C@@H](C)CN([C@H](C)CO)C3=O)cc1 | 3.4
C[C@H](CO)N1C[C@H](C)[C@@H](CN(C)C(=O)Nc2ccc3c(c2)OCO3)OCc2cn(nn2)CCCC1=O | -2.7&-3.1
O=C(C[C@@H]1CC[C@H]2[C@@H](COC[C@@H](O)CN2Cc2ccc(Cl)cc2)O1)NCc1ccccc1Cl | 0.0
C[C@@H]1CN([C@H](C)CO)S(=O)(=O)c2ccc(Br)cc2O[C@@H]1CN(C)C(=O)CC1CC1 | 0.5
COc1ccc(S(=O)(=O)N(C)C[C@H]2OCCCC[C@H](C)Oc3ccc(NS(=O)(=O)c4ccc(F)cc4)cc3C(=O)N([C@@H](C)CO)C[C@@H]2C)cc1 | 0.6
Cc1ccccc1-c1cc2nc(NCCOc3ccccc3)n(C)c(=O)c2s1 | -3.7
CCN(C[C@H]1[C@H](c2ccc(-c3cccnc3)cc2)[C@H](CO)N1C(C)=O)C(C)=O | -0.9
CNC[C@@H]1Oc2ccc(NC(=O)C3CCCCC3)cc2CC(=O)N([C@H](C)CO)C[C@H]1C | -4.9
CCCCCCCCC(c1nc2ccccc2[nH]1)N1CCN=C1c1cc2ccccc2[nH]1 (stereo not given) | 14.6
C[C@@H]1CN([C@H](C)CO)C(=O)c2cccc(NS(=O)(=O)c3cccs3)c2O[C@H]1CN(C)C(=O)NC1CCCCC1 | -1.3
CCN1C[C@@H]2[C@@H]3C(=O)N(C)C(=O)[C@@H]3[C@](Cc3ccccc3)(C1=O)N2C(=O)c1ccc(F)cc1 | -0.5
Cc1noc(C)c1NC(=O)Nc1ccc2c(c1)C(=O)N([C@H](C)CO)C[C@@H](C)[C@H](CN(C)CC1CCCCC1)O2 | 0.0
Cc1noc(C)c1NC(=O)Nc1ccc2c(c1)CC(=O)N([C@H](C)CO)C[C@H](C)[C@H](CN(C)Cc1ccc(C(=O)Nc3ccccc3N)cc1)O2 | -6.4
COc1ccc(CN2CCNC(=O)C2CC(=O)N(C)C2CCOCC2)cc1OC (stereo not given) | -5.0
COc1cc(F)ccc1-c1cc(C(=O)Nc2cc(OC)c(OC)c(OC)c2)[nH]n1 | -6.2
CC(C)NC(=O)N(C)C[C@@H]1OCCCC[C@@H](C)Oc2ccc(NS(=O)(=O)c3ccc(Cl)cc3)cc2C(=O)N([C@@H](C)CO)C[C@H]1C | -2.5
S=c1[nH]c2nc(Cl)c(Cl)nc2[nH]1 | -0.7
Cc1ccc(S(=O)(=O)Nc2cccc3c2O[C@@H](CN(C)Cc2ccc4c(c2)OCO4)[C@@H](C)CN([C@H](C)CO)C3=O)cc1 | 0.2
Cc1ccccc1NC(=O)Nc1nc(C2CCC(=O)N2)cs1 (stereo not given) | -4.5
COc1cc(/C=C/C(=O)OCC(=O)N(CC(C)C)c2c(N)n(Cc3ccccc3)c(=O)[nH]c2=O)ccc1O | 0.7
O=C(c1cnccn1)N1CC(=O)N2[C@H](C1)[C@H](c1ccc(-c3ccc(F)cc3)cc1)[C@@H]2CO | 17.5
COc1ccc2c3c(n(C)c2c1)[C@H](CO)N(C)CC31CCN(C(=O)Nc2c(C)noc2C)CC1 | -17.4
CN(C)CC(=O)N1CC2(C1)[C@H](c1ccccc1)[C@@H](CO)N2S(=O)(=O)c1ccccc1 | 0.3
O=C(c1cnccn1)N1C[C@@H]2[C@H](c3ccccc31)[C@H](CO)N2Cc1ccccc1Cl | 0.5

The list is partial; count on the stated rates, not on these rows.
